Source: PubChem BioAssay
N370S GC mod: inhibitors or activators of N370S glucocerebrosidase for Gaucher disease | P04062 | N370S GC spleen homogenate, 4MU-glucoside fluorescence | Potency, µM (titrated, usually from 59.4 µM), for the others: at the highest dose activity change, negative = inhibition, most hits filed as inhibitors | actives 0.092% (n = 330,000);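 further: 0% = full enzyme activity and -100% = no enzyme basal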
FEN1 inh: blocks human flap endonuclease 1. Potency, µM (doses to about 114 µM), for the others: at the top dose activity change, negative = inhibition, most hits filed as inhibitors. Recombinant FEN1 flap cleavage, fluorescence, 15 min. actives 0.35% (n = 390,000). P39748; further: nearly all actives have a fitted effect of over 65% in size
Target sequence (P39748 whole entry, looked up): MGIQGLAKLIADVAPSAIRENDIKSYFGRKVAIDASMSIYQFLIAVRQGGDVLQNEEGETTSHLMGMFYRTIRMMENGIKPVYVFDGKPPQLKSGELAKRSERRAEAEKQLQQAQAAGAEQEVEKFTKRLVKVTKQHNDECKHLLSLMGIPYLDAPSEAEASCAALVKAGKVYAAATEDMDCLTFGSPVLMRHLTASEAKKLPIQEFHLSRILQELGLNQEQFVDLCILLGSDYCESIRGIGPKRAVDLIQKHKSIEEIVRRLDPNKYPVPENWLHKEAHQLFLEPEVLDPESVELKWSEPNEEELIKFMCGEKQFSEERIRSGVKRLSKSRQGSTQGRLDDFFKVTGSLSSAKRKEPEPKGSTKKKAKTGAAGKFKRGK
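Potency values derive from four-parameter Hill fits of normalized qHTS data. The reaction used 10 nM FEN1 preincubated 15 min at room temperature with compound, then 50 nM DNA substrate, read at 0 and 15 min.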
The depositor's hits bear a star; ? = inconclusive; · = no result given; & = joins results of further samples. The call rests on the fitted dose curve; in most records, active means well fitted curve in the direction sought with a large enough effect; inconclusive means small, poorly fitted or top-dose-only effect, or another doubt; inactive means no such curve, though single readings can be large; an effect the other way counts as inactive or inconclusive. Unless noted, on the % scale 0 is the no-effect control and ±100 the full control effect; potency means the concentration at half of the fitted maximal effect. An excerpt, and most or all hits are left out here.

Value order – N370S GC mod, FEN1 inh
O=C(NCCc1cnn(-c2ccccc2)c1)c1cc(COc2c(F)cccc2F)on1
  9%, -4%
O=C(Cn1nc(C(=O)O)c2ccccc2c1=O)Nc1cccc(S(=O)(=O)N2CCCCC2)c1
  ·, -2%
O=C(CCNS(=O)(=O)c1ccc(Cl)cc1)N1CCOCC1
  3%, -2%
COc1cc(NC(=O)c2cccs2)c(C(=O)OCC(=O)NCc2ccco2)cc1OC
  3%, -11%
CC(C)OCCCNC(=O)C(Cc1ccccc1)NS(=O)(=O)c1ccc2c(c1)CCC(=O)N2 (stereo not given)
  18%, 14%
CC(OC(=O)c1cc(S(=O)(=O)N(C)c2ccccc2)ccc1Cl)C(=O)Nc1ccc2c(c1)OCCO2 (stereo not given)
  2%, -11%
Cc1cc(Cl)ccc1NNC(N)=S
  2%, -4%
CCOc1cc(/C=C2/N=C(C)C(C(=O)OC)=C2O)ccc1O
  -14%, 1%
CCc1nn(CC(=O)N2CCN(c3ccc(OC)cc3)CC2)c(=O)c2cc3sccc3n12
  ·, 15%
Cc1cc(C)c(S(=O)(=O)N(CC(=O)N2CCOCC2)C2CCCCC2)c(C)c1
  2%, -3%
COc1ccc(OCCCC(=O)Nc2nnc(C3CCCO3)s2)cc1 (stereo not given)
  20%, -9%
COc1ccc(N2C(=O)CSC2c2cccc(F)c2)c(OC)c1 (stereo not given)
  -13%, -5%
O=C(Cn1c(=O)oc2cc(S(=O)(=O)N3CCc4ccccc43)ccc21)N1CCCCC1
  -1%, 17%
CCN(CC)C(=O)c1cn(C)c(=O)c2cc(OC)c(OC)cc12
  1%, 7%
Cc1onc(-c2ccccc2)c1C(=O)N1CCN(S(=O)(=O)c2ccc(Cl)cc2)CC1
  -8%, 0%
CC(Sc1nnc(-c2ccco2)o1)C(=O)Nc1ccc(OC(F)F)cc1 (stereo not given)
  ·, 4%
Cc1cc(S(=O)(=O)NC2CC(C)(C)NC(C)(C)C2)c(Cl)cc1Cl
  0%, 7%
COc1ccc(-c2cnn(-c3ccccc3)c2N)cc1OC
  11%, -8%
COc1ccc([N+](=O)[O-])cc1NC(=S)NC(C)=O
  7%, 1%
COc1ccc(Cl)cc1NC(=O)C(C)Sc1n[nH]c(N)n1 (stereo not given)
  -21%, -11%

Brought forward from above: two entries, then new ones.
Value order – N370S GC mod, FEN1 inh
COc1ccc([N+](=O)[O-])cc1NC(=S)NC(C)=O
  7%, 1%
COc1ccc(Cl)cc1NC(=O)C(C)Sc1n[nH]c(N)n1 (stereo not given)
  -21%, -11%
CCOC(=O)Cc1nc2ccccc2n(CC#N)c1=O
  22%, 14%
COCCCNC(=S)N/N=C/c1ccc(OC)cc1
  5%, 7%
O=C(O)c1ccccc1OCC1CCCO1 (stereo not given)
  -2%, -3%
Cc1c(C(=O)N2CCC2)oc2ccc(Cl)cc12
  ·, 4%
CC(C)CCOC(=O)C1C2C=CC3(CN(Cc4cccs4)C(=O)C13)O2 (stereo not given)
  3%, -3%
O=C(Cn1c(=O)oc2ccccc21)NCC1COc2ccccc2O1 (stereo not given)
  0%, -8%
CC[C@H](C)C(C(=O)N1CCN(C(=O)OC(C)(C)C)CC1)n1cc(C(Cc2ccc(O)cc2)NC(=O)OC(C)(C)C)nn1 (stereo not given in full)
  -13%, 10%
O=C(CN(C(=O)C1CSC(=O)C1)c1cccc(F)c1)NCc1ccc2c(c1)OCO2 (stereo not given)
  -3%, -1%
COc1cc([N+](=O)[O-])c2nccnc2c1
  ?, -8%
Cc1cccc(CS(=O)(=O)Cc2ccc(C(=O)NCCCN3CCOCC3)o2)c1
  4%, 7%
O=c1c(CN2CCN(Cc3ccccc3)CC2)coc2ccc(Cl)cc12
  -7%, -14%
CN(C)CCNC(=O)Cc1ncc(C(F)(F)F)cc1Cl
  -2%, 2%
CC1CC(CC(=O)NC(=S)Nc2ccccc2Cl)C(=O)O1 (stereo not given)
  -14%, 8%
Cc1ccc(Oc2coc3cc(O)ccc3c2=O)cc1
  -1%, 14%
Cc1ccnc(NC(=O)COc2ccccc2[N+](=O)[O-])c1
  15%, ·
O=C(c1ccoc1)N1CCC2(CC1)Oc1ccc(F)cc1C(=O)C21CC(c2ccc(Cl)cc2)=NO1 (stereo not given)
  -1%, 8%
CSc1ccccc1NC(=O)COC(=O)CCc1ccccc1
  -4%, -18%
CCC(O)c1nc2ccccc2n1CCOc1cc(C)cc(C)c1 (stereo not given)
  ·, 10%
CC(NC(=O)Cn1c(=O)[nH]c2ccsc2c1=O)C12CC3CC(CC(C3)C1)C2 (stereo not given)
  3%, 18%
Cc1sc(NC(=O)CSc2nnnn2C)c(C#N)c1C
  -6%, -6%
O=C(NC1CCCCC1)C(c1ccncc1)N(C(=O)Cc1cccs1)c1ccccc1 (stereo not given)
  3%, 3%
Cc1cccc(CNc2ccc(S(=O)(=O)N3CCCCC3)cc2)c1
  ·, 4%
CN1C(=O)/C(=C/c2ccc(C(=O)NC3CCCC3)cc2)Oc2ccccc21
  2%, 19%
CN(C)c1ccc(C=C2C(=O)OC(C)(C)OC2=O)cc1
  6%, 10%
Cc1ccc2c(c1)NC(=O)C(CC(=O)NCCN(C)C)O2 (stereo not given)
  -4%, -18%
COC(=O)C1CSC(C(=O)OC)N1C(=O)Nc1ccc(Cl)c(Cl)c1 (stereo not given)
  -4%, 13%
CCOC(=O)COn1c(=O)c(-c2ccc(OCC)cc2)[n+]([O-])c2ccccc21
  -6%, 13%
Cn1c(N)c(C(=O)COC(=O)CCC(=O)c2cccs2)c(=O)n(C)c1=O
  -12%, -7%
COc1cccc(CNC(=O)COC(=O)/C=C/c2ccc(SC)cc2)c1
  ·, -1%
O=C(NCc1ccco1)c1sc2cc(F)ccc2c1Cl
  -7%, -2%

Gathered by group: the entries above containing a furan ring, fused or not (six)
Value order – N370S GC mod, FEN1 inh
COc1cc(NC(=O)c2cccs2)c(C(=O)OCC(=O)NCc2ccco2)cc1OC
  3%, -11%
CC(Sc1nnc(-c2ccco2)o1)C(=O)Nc1ccc(OC(F)F)cc1 (stereo not given)
  ·, 4%
Cc1c(C(=O)N2CCC2)oc2ccc(Cl)cc12
  ·, 4%
Cc1cccc(CS(=O)(=O)Cc2ccc(C(=O)NCCCN3CCOCC3)o2)c1
  4%, 7%
O=C(c1ccoc1)N1CCC2(CC1)Oc1ccc(F)cc1C(=O)C21CC(c2ccc(Cl)cc2)=NO1 (stereo not given)
  -1%, 8%
O=C(NCc1ccco1)c1sc2cc(F)ccc2c1Cl
  -7%, -2%

Remaining list, next part
Value order – N370S GC mod, FEN1 inh
N#Cc1nc(-c2ccc(COc3ccc(Cl)cc3)o2)oc1N1CCC(C(N)=O)CC1
  ·, -16%
N/C(COc1ccc(F)cc1)=N\NC(=O)c1cccnc1Oc1ccccc1
  ?, 0%
Cc1cnc(NC(=O)c2cccc(S(=O)(=O)N3CCOCC3)c2)s1
  ·, 16%
Cc1ccc(NC(=O)COc2ccccc2C(=O)NCCc2ccccc2)cc1
  ?, -18%
COc1cccc(/C=C/C(=O)OCC(=O)N2CCCC2)c1OC
  ·, 0%
Cc1cc2oc(=O)cc(CN3CCC(C)CC3)c2cc1Cl
  -1%, 2%
O=C(COc1ccc(S(=O)(=O)N2CCCCC2)cc1Cl)N1CCCC1
  -3%, 32%
CCn1cnc2cc(NC(=O)c3cccs3)ccc21
  3%, 18%
COc1ccc(CNS(=O)(=O)c2ccc3c(c2)C(C)(C)C(=O)N3C)cc1
  -4%, 6%
Cn1c(=O)c2c(ncn2CC(=O)Nc2cc(Cl)c(Cl)cc2Cl)n(C)c1=O
  -10%, ·

3 entries out of the list, arranged by length of the SMILES, ascending:
Value order – N370S GC mod, FEN1 inh
CCn1cnc2cc(NC(=O)c3cccs3)ccc21
  3%, 18%
COc1cccc(/C=C/C(=O)OCC(=O)N2CCCC2)c1OC
  ·, 0%
N#Cc1nc(-c2ccc(COc3ccc(Cl)cc3)o2)oc1N1CCC(C(N)=O)CC1
  ·, -16%

(further entries)
Value order – N370S GC mod, FEN1 inh
CC(=O)OC1COC(n2ccc3ccccc32)C(OC(C)=O)C1OC(C)=O (stereo not given)
  7%, 0%
O=C(NCc1ccccc1F)C1CCN(S(=O)(=O)c2ccccc2)CC1
  4%, 0%
CN1C(=O)N(CC(=O)N2CCN(c3ccccc3F)CC2)C(=O)C12CCCCC2
  ·, 2%
CCN(CC)c1ccc(S(=O)(=O)N2CCOCC2)cc1NC(=O)C1CC1
  ·, 0%
O=C1c2ccccc2-c2onc3ccc(N4CCCC4)c1c23
  12%, 22µM*
CN(C)/C=C(\C#N)C(=O)N/N=C(\CC(=O)C(F)(F)F)c1ccco1
  8%, -6%
CC1CCCCN1Cc1nc2c(c(=O)n(C)c(=O)n2C)n1Cc1ccc(Br)cc1 (stereo not given)
  ·, 21%
CCCc1cc(=O)[nH]c(SCC(=O)Nc2cc(S(=O)(=O)N3CCOCC3)ccc2Cl)n1
  ·, -12%
CCOC(=O)c1cc(C)n(CC2CCC(C(=O)Nc3ccc(C)c(F)c3)CC2)c1C (stereo not given)
  ·, -12%
C=C[C@@H](C)N(Cc1ccc(OC)cc1)S(=O)(=O)N(Cc1ccccc1)[C@H](C=C)C(C)C
  ·, 1%&-29%

Remaining list, next part:
Structure,N370S GC mod,FEN1 inh
COc1cc(NC2c3ccccc3C(=O)N2c2cc(C)ccn2)cc(OC)c1OC (stereo not given),9%,-8%
COc1ccc(N2C(=O)C(CC(=O)Nc3ccc(F)cc3)N(CCc3cccs3)C2=O)cc1 (stereo not given),-9%,-3%
O=C(NCCCN1CCOCC1)Nc1ccc(Cc2ccc(NC(=O)NCCCN3CCOCC3)cc2)cc1,-24%,7%
O=C(Cn1ncc2c3ccccc3n(Cc3ccccc3)c2c1=O)NC1CCCC1,-3%,-11%
CN(Cc1ccon1)C(=O)C1CCC(=O)N(Cc2ccc(Cl)cc2)C1 (stereo not given),1%,9%
O=C(NCCC(=O)N(Cc1ccco1)Cc1cccs1)c1ccccc1Cl,·,-3%
COc1ccc(NC(=O)CSc2nc3sc(C)cc3c(=O)n2C)c(OC)c1,7%,-18%
CC(C)Nc1nc(NC(C)C)nc(N(C)C(N)=O)n1,3%,3%
CCc1ccc(/C=C2\SC(=S)N(CCC(=O)NCCCN3CCOCC3)C2=O)cc1,?,-25%
O=C(c1ccc(-c2ccccc2)cc1)N1CCN(C(=O)c2ccco2)CC1,12%,6%
O=C(CSc1nc2ccccc2o1)Nc1ccc(N2CCOCC2)c(Cl)c1,1%,-21%
CCN(CC)C(=O)c1cccc(NC(=O)c2ccc3c(=O)n4c(nc3c2)CCC4)c1,-14%,1%
COc1ccc(Cl)cc1N=Cc1c(O)c2ccccc2oc1=O,-16%,1%
O=C(Nc1nnc(Cc2ccc(Cl)cc2)s1)C1CCCO1 (stereo not given),2%,2%
COc1ccc(NC(=O)/C=C2\SC(=O)NC2=O)cc1,-4%,-16%
Cc1cccc(C)c1NC(=O)C(C)Sc1n[nH]c(-c2ccncc2)n1 (stereo not given),-4%,13%
CCOC(=O)C1CCCN(S(=O)(=O)c2c(C)[nH]c(C)c2C(=O)N2CCCC2)C1 (stereo not given),-14%,-2%
O=C1c2cccc3c(O)ccc(c23)C(=O)N1Cc1ccco1,23%,?
CC(=O)C1=C(O)C(=O)N(CCc2c[nH]c3ccccc23)C1c1cccc(O)c1 (stereo not given),5%,0%
COc1cccc2cc(S(=O)(=O)c3ccc(C)cc3)/c(=N/NS(=O)(=O)c3ccc(C)cc3)oc12,-2%,1%
COCCN(C(=O)COC(=O)c1ccc2[nH]c(C)c(C)c2c1)c1c(N)n(Cc2ccccc2)c(=O)[nH]c1=O,-22%,0%
CCOC(=O)C(Cc1ccc(NC(C)=O)cc1)N1C(=O)c2ccccc2C1=O (stereo not given),·,-16%
COCCNC(=O)c1ccc(N2CCCCC2)c(NS(=O)(=O)c2ccc(C)cc2)c1,27%,-12%
COc1ccccc1NC(=O)Cn1c2ccccc2c2nc3n(c(=O)c21)CCS3,7%,-2%
CSCCC(NC(=O)COc1ccccc1)C(=O)OCCOc1ccc(F)cc1 (stereo not given),-7%,-13%
Cc1nc2ccccn2c1/C(O)=C1\C(=O)C(=O)N(CCN2CCOCC2)C1c1cccs1 (stereo not given),-5%,-11%
Cc1ccc2nc(SCC(=O)Nc3ccc(C)c([N+](=O)[O-])c3)[nH]c2c1,3%,-9%
O=C(COc1ccc(Cl)cc1Cl)N/N=C/c1cccnc1,7%,-3%
CC1CCCCN1CCCNC(=O)Cn1ncc2c([nH]c3ccccc32)c1=O (stereo not given),4%,6%&-8%
CCN1CCN(C(=S)NC(=O)/C=C/c2cccs2)CC1,-24%,-10%
C=CCn1c(SCC(=O)NCc2ccc3c(c2)OCO3)nnc1C1CCCCC1,7%,-10%
Cc1[nH]c(C)c(S(=O)(=O)NCc2ccc(F)cc2)c1C(=O)N1CCCCC1,-1%,-8%
Cc1nc(-c2ccccc2)sc1-c1nnc(C2CC2)o1,11%,-2%
CN(C)C(=O)COc1ccc(Br)cc1,12%,0%
CCOC(=O)c1ccc(N2C(=O)CC(Sc3nnc(C)s3)C2=O)cc1 (stereo not given),-5%,-2%
NS(=O)(=O)c1ccc(Sc2nc3ccccc3s2)c([N+](=O)[O-])c1,-1%,-9%
O=C1NC(=S)N(C(=O)c2ccc(F)cc2)/C1=C/c1ccccc1,6%,-1%
CCN(CC)C(=O)CC(c1ccc(N(C)C)cc1)c1c(OC)cc(OC)c2ccc(=O)oc12 (stereo not given),2%&8%,-22%&10%
CN(C(=O)c1cccnc1)c1nc(-c2ccccc2)cs1,8%,1%
